Fibroblast inh – antiproliferative effect on LL 47 fibroblasts – human, LL 47 cells, CellTiter-Glo luminescence, primary screen; LL 47 human lung fibroblast viability, ATP luminescence; stronger effect = lower value; 85,000 compounds, 1.1% hits; viability, % at 10 µM;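 active = viability at or below 50% in the single dose screen; inactive = viability above 50%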;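 note: compound exposure lasted 72 h before the ATP readout; 100% = median luminescence of untreated cell-only wells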
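material = human LL 47 lung fibroblast cells | dosing = compounds added from tenfold dosing solution, 0.1% DMSO final | timing = overnight cell rest, 72 h compound treatment at 37 °C | measured by = CellTiter-Glo luminescence measuring cellular ATP | evaluation = % viability versus median cells-only luminescence | control set = cell-only wells, no compound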
S1P2 antag – human S1P2 receptor antagonists, primary screen, cell-based; 97,000 compounds, 0.21% hits; cell-based S1P2 antagonist assay, inhibition at 5 uM; inhibition, % at 5 µM; AID 736, 2007; Sphingosine 1-phosphate receptor 2 (Homo sapiens), O95136; in the data active = inhibition above about 45%;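 note: CRE beta-lactamase reporter cells expressing human S1P2 stimulated with S1P; 0% = agonist at EC80 alone and 100% = agonist plus reference antagonist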
Target sequence (O95136 whole entry, looked up): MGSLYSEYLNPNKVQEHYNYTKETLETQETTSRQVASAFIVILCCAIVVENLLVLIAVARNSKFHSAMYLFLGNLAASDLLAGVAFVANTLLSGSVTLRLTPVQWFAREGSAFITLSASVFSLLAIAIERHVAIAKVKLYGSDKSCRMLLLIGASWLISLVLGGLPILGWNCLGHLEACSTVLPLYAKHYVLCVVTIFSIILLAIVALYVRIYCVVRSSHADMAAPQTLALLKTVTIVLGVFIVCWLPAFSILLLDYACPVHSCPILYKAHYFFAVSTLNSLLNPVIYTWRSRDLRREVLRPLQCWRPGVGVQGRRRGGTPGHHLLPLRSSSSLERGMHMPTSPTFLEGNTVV
S1P2 agonist – S1P2 receptor agonists, primary screen, cell-based; 97,000 compounds, 0.46% hits; S1P2-expressing cell line, agonist reporter read-out; Sphingosine 1-phosphate receptor 2 (Homo sapiens), O95136; AID 729, 2007; activation, % at 4.5 µM; in the data active = activation above about 16%;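 note: 0% = vehicle low control and 100% = maximal reference agonist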
H69AR growth 86K – proliferation blockers of H69AR lung cancer cells, primary screen, cell-based, human, 86K library; H69AR lung tumor viability, ATP luminescence, 72 h; stronger effect = lower value; viability, % at 10 µM; 85,000 compounds, 6% hits;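 active = viability at or below 40%; inactive = viability above 40%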;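 note: multidrug resistant small cell line overexpressing MRP-1 efflux transporter; 100% = mean luminescence of untreated control wells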
PostGolgi ctrl – growth inhibition of yeast control strain, primary screen, counter-screen for post-Golgi transport modulator project. 98,000 compounds, 5% hits. inhibition, % at 10 µM. efflux-deficient yeast background strain, growth absorbance A615, 16 h; in the data active = inhibition above about 30%
HUVEC inhibit – inhibitors of HUVEC proliferation, primary screen, cell-based, 384-well; CellTiter-Glo luminescence, 72 h; stronger effect = lower value; viability, % at 10 µM (by protocol); 86,000 compounds, 1.1% hits; AID 648, 2007;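 active = viability at or below 30%; inactive = viability above 30%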;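 note: 100% = median luminescence of DMSO-only cell control wells on each plate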
PTPN22 act – LYP phosphatase activators, primary screen, biochemical, DiFMUP fluorescence, 2 µM; Tyrosine-protein phosphatase non-receptor type 22 (Homo sapiens), Q9Y2R2; recombinant LYP; 0 = plate median, 100 = signal doubled; activation, % at 2 µM; 96,000 compounds, 0.11% hits;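 active = activation at 2 µM above a set limit, the mean plus 5 SD, cut at about 37% in these data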
* = called active by the depositor; x = no result given.

SMILES	Fibroblast inh	S1P2 antag	S1P2 agonist	H69AR growth 86K	PostGolgi ctrl	HUVEC inhibit	PTPN22 act
COc1ccc(-c2cnn(C3CCS(=O)(=O)C3)c2N)cc1 (stereo unspecified)	100.1	-4.2	-4.9	96.3	-6.0	89.8	8.5
CNC(=O)CSc1nc2nc(C)cc(C)n2n1	108.5	14.6	0.1	105.2	1.8	94.5	-3.9
COCCN(CCOC)C(=O)CCn1c(=O)oc2ccccc21	105.1	-8.6	-1.9	103.6	1.6	87.3	3.6
COc1ccc(C2NC(c3ccc(OC)c(OC)c3OC)C(C)C(=O)C2C)c(OC)c1OC (stereo unspecified)	87.3	-2.7	-1.8	90.7	3.3	101.8	5.6
CC(=O)c1c(C)[nH]c(C(=O)COC(=O)CNS(=O)(=O)c2ccccc2)c1C	103.5	-0.4	-5.9	87.5	3.2	100.0	-2.4
COc1ccc(OC2C(=O)N(Cc3ccc4c(c3)OCO4)C2c2cccs2)cc1 (stereo unspecified)	x	-6.5	-4.2	x	23.9	x	0.8
CCCCCCCC(=O)N/N=C(/C)c1c(O)cc(C)oc1=O	x	5.3	-7.4	x	6.2	x	-7.1
Cc1ccc(/C=N/NC(=O)c2csc3c2CCCC3)cc1	x	-15.7	-12.9	x	32.4*	x	-7.1
c1ccc2c(c1)CCCN2Cc1nnnn1C1CCCC1	98.4	-10.7	-5.6	83.0	21.1	95.1	1.9
COc1ccccc1OCC(=O)c1[nH]c(C)c(C(C)=O)c1C	101.8	50.6*	-3.5	83.6	2.1	80.2	-3.1
N#Cc1cnn2cc(-c3ncc(C(F)(F)F)cc3Cl)cnc12	x	14.3	-8.7	x	2.0	x	-5.3
COCCCNC(=O)C1CCCCN1S(=O)(=O)c1ccc(F)cc1 (stereo unspecified)	95.3	-2.0	-1.5	87.4	-3.0	86.8	-3.6
COc1ccccc1NC(=O)CN1CCC(n2c(C)nc3cc(F)ccc32)CC1	89.9	-29.6	19.1*	80.0	23.8	81.6	1.8
CCOC(=O)c1c(NS(C)(=O)=O)sc2c1CCC(C)C2 (stereo unspecified)	100.1	2.3	-7.5	89.2	31.6*	89.2	-7.0
Cc1nn(-c2ccccc2)c2[nH]c(=O)c(CNCCN3CCOCC3)cc12	101.1	0.9	-6.9	99.2	-10.6	94.8	-5.5
CCC(=O)NS(=O)(=O)c1cccnc1Nc1ccccc1Cl	x	-11.0	-7.9	x	-10.8	x	6.9
CCOc1ccc(NC(=O)c2cnsn2)cc1	104.5	6.3	-4.8	70.2	-1.1	92.9	-3.8
O=C(NC1CCCCC1)N1CCC(c2nc(-c3ccc(S(=O)(=O)N4CCCC4)cc3)no2)CC1	82.8	2.2	-7.4	30.1*	1.5	73.1	16.4
O=C(NCc1ccccc1Cl)C1CCCN(S(=O)(=O)c2cnc[nH]2)C1 (stereo unspecified)	110.5	-1.8	1.4	93.3	-4.7	102.9	3.1
O=C(Nc1cccnc1)c1cccc(S(=O)(=O)N2CCOCC2)c1	99.3	-7.6	-5.1	100.9	2.5	105.5	2.4
CCc1nc(NCC2CCCN2CC)c2nnn(Cc3ccccc3F)c2n1 (stereo unspecified)	91.8	-4.3	-10.6	71.0	-11.3	78.8	-2.7
CC(=O)N1CCC(=O)N(C(C)C)c2ccccc21	108.3	-11.8	-0.8	103.7	6.8	89.3	0.2
COc1c(Cl)cnn(-c2ccc(C)cc2)c1=O	x	-4.8	-0.6	x	25.2	x	-1.1
Cc1nc2ccc(N)cc2c(=O)n1Cc1ccc(Cl)cc1	103.8	-13.0	-4.7	109.6	7.0	95.6	-0.9
CCN(C(=O)COc1cc(=O)n(CC)c2ccccc12)c1cc(Cl)ccc1OC	90.0	-5.2	-5.2	90.1	23.4	69.1	3.2
COC(=O)Cc1ccc(NC(=O)c2ccc(Br)o2)cc1	107.3	-13.3	1.1	92.1	7.5	92.2	3.2
Cc1ccc(CNC(=O)CCc2ccc(S(=O)(=O)NC3CCCCC3)cc2)cc1	x	-1.8	-3.3	x	20.6	x	15.3
COc1ccc(N=C2SC(CC(=O)Nc3ccc(OC)cc3OC)C(=O)N2C)cc1 (stereo unspecified)	96.9	9.5	-5.1	96.0	-1.7	93.9	9.2
O=C(CCn1nnc2ccccc2c1=O)N[C@H](C(=O)O)c1ccccc1	93.9	2.3	-2.0	102.3	0.5	86.2	1.5
CCC(=O)Nc1ccc(S(=O)(=O)NCC2CCCO2)cc1 (stereo unspecified)	100.4	4.1	-1.4	90.7	-7.3	106.7	5.9
Cc1nnc(SCC(=O)Nc2ccc(Cl)cn2)n1Cc1ccccc1	113.5	18.7	-14.6	86.5	0.6	112.8	2.5
CCCC(=O)NC(Nc1ccc(S(=O)(=O)Nc2cc(C)on2)cc1)(C(F)(F)F)C(F)(F)F	105.4	-13.5	-6.0	108.5	x	98.8	-0.3
c1ccc(C2C3=C(CCCC3)Nc3ncnn32)cc1 (stereo unspecified)	104.9	-9.2	-3.5	90.3	-0.7	96.0	-5.8
COc1ccc(-c2cc(C(F)(F)F)nc(SCCC(=O)NCc3ccco3)n2)cc1	54.6	1.0	-8.1	70.4	9.7	48.7	1.7
CCOc1ccccc1-c1n[nH]c(=S)o1	96.7	-5.6	-0.1	62.5	3.0	79.0	4.0
CCc1ccc(CCC(=O)Nc2nc(CC(C)=O)ns2)o1	101.7	-9.3	-4.4	84.7	8.6	103.4	6.5
Cc1nnc(NC(=O)C2CCCN(c3ncccn3)C2)s1 (stereo unspecified)	96.1	-1.6	-3.8	98.7	-7.6	95.8	5.0
CCOC(=O)c1c(NC(=O)Cn2cnc([N+](=O)[O-])n2)sc2c1CCC(C)C2 (stereo unspecified)	x	-4.4	1.8	x	-2.4	x	1.8
Cc1ccc(/C=C2/NC(=O)N(c3ccccc3)C2=O)o1	x	10.3	-4.0	x	-0.9	x	-4.1
O=C(NC1CC2CCC(C1)N2C(=O)NCc1ccccc1)NC12CC3CC(CC(C3)C1)C2 (stereo unspecified)	x	-14.3	-1.1	x	-2.9	x	-1.2
CCN(CC)S(=O)(=O)c1cccc(C(=O)NCCCN2CCOCC2)c1	93.1	-9.9	-3.1	84.2	1.2	91.2	8.6
Cc1ccc(OCCNC(=O)/C=C/c2ccc([N+](=O)[O-])cc2)cc1C	x	-27.5	-5.2	x	1.4	x	-6.3
COc1cc(C2/C(=C(/O)c3ccc(F)cc3)C(=O)C(=O)N2CCCC(=O)O)ccc1O (stereo unspecified)	96.7	-20.6	-2.2	93.3	-4.7	97.0	3.0
c1ccc2oc(SCc3nc4ccccc4s3)nc2c1	93.9	-7.7	-3.1	82.3	-2.5	97.2	6.4
O=C(Nc1ccccc1Oc1ccccc1)c1cccc([N+](=O)[O-])c1	x	-1.6	-0.8	x	10.9	x	-5.1
COc1ccc(NC(=O)c2cccnc2Nc2ccccc2)cc1	106.7	0.5	-1.4	106.8	15.4	104.3	-9.6
COc1ccc(NC2CS(=O)(=O)CC2NCc2ccccc2)cc1 (stereo unspecified)	102.9	-6.5	-6.0	103.0	x	93.3	-10.0
O=S(=O)(c1cccc2nsnc12)N1CCN(c2ncccn2)CC1	x	-4.7	-3.1	x	1.5	x	6.2
O=c1c2c3c(sc2n2cnnc2n1-c1ccccc1)N(Cc1ccccc1)CCC3	112.3	26.3	-4.3	97.9	0.9	86.1	-6.6
COc1ccc(CC(=O)c2cc(OC)c(OC)cc2CC(=O)O)cc1OC	99.2	9.7	-2.0	75.2	3.8	93.8	10.9
O=C(NCc1ccc2c(c1)OCO2)C1CC(=O)N(CCc2ccccc2)C1 (stereo unspecified)	113.3	5.7	-6.3	92.7	-2.3	108.0	16.5
COc1ccc(NC(=O)COC(=O)c2cc(OC)c(OC)cc2NC(=O)c2ccco2)cc1OC	x	-20.2	17.5*	x	-0.3	x	-3.1
O=C(COn1nnc2ccc(Cl)cc21)NCc1ccccc1	96.8	21.8	-6.1	99.6	11.2	89.4	-8.3
Cc1ccnc(N2CCC(C(=O)NNC(=O)c3ccccc3)CC2)n1	x	5.8	-5.1	x	-1.1	x	-1.4
COCCNc1nc2c(c(=O)n(C)c(=O)n2C)n1Cc1cccc(C(F)(F)F)c1	104.2	13.9	-4.6	70.8	3.7	93.0	0.9
COc1ccc(NC(C)=O)cc1NC(C)C(=O)Nc1ccccc1F (stereo unspecified)	99.2	2.1	-8.0	82.8	5.6	92.3	8.7
O=C(NCc1cccs1)C1CCN(c2nccs2)CC1	83.8	12.0	-4.0	91.2	2.2	90.8	1.5
CCOC(=O)Cc1csc(NC(=O)c2ccoc2C)n1	97.2	2.0	-6.4	94.8	12.6	95.0	-5.2
CC(=O)Nc1ccc(S(=O)(=O)N2CCCC2C(=O)O)cc1 (stereo unspecified)	104.6	10.4	-3.5	93.2	-2.8	94.6	4.7
Nc1nnc(SCC(=O)c2ccc3ccccc3c2)s1	99.2	2.9	-3.4	102.6	26.5	93.9	-1.7

Only H69AR growth 86K (3 entries from above):
| smiles | H69AR growth 86K |
| --- | --- |
| CNC(=O)CSc1nc2nc(C)cc(C)n2n1 | 105.2 |
| COCCN(CCOC)C(=O)CCn1c(=O)oc2ccccc21 | 103.6 |
| COc1ccc(C2NC(c3ccc(OC)c(OC)c3OC)C(C)C(=O)C2C)c(OC)c1OC (stereo unspecified) | 90.7 |

The list continues:
SMILES	Fibroblast inh	S1P2 antag	S1P2 agonist	H69AR growth 86K	PostGolgi ctrl	HUVEC inhibit	PTPN22 act
CCN(CC)S(=O)(=O)c1ccc(NC(=O)Nc2cccc(C(F)(F)F)c2)cc1	x	-18.4	-3.6	x	-7.5	x	5.8
COc1cc(S(=O)(=O)N2CCOCC2)ccc1NC(=O)COC(=O)CC12CC3CC(CC(C3)C1)C2	x	-9.1	-4.8	x	19.7	x	-3.9
Cc1cc(C(=O)Nc2ccc3c(c2)OCCO3)co1	x	13.1	-5.8	x	-4.8	x	1.3
CC1=C(C(=O)Nc2ccccc2)C(c2cccs2)n2nnnc2N1 (stereo unspecified)	94.0	-8.8	-3.5	69.3	9.6	95.1	-4.4
Cc1ccc(C(=O)NCCSC2CCCCC2)cc1S(=O)(=O)Nc1ccccc1	x	11.5	-2.6	x	14.8	x	0.1
CCCOc1ccc(C(=O)NCCCn2ccnc2)cc1	93.8	23.1	-1.5	96.7	20.7	88.0	8.7
CCNS(=O)(=O)c1ccc(NC(=O)c2cc(C(F)(F)F)nn2C)cc1	99.4	21.8	-6.0	79.7	-1.6	96.3	-5.6
COC(=O)NNC(=O)c1ccc(C)cc1	x	5.9	-1.4	x	-8.6	x	1.7
COc1ccc(NC(C)=O)cc1NC(C)C(=O)Nc1cccc2ccccc12 (stereo unspecified)	98.4	-9.4	-3.0	77.0	-6.3	104.1	-5.9
Cn1c(C(=O)NCCC2=CCCCC2)cc2c(=O)n3ccccc3nc21	106.8	-25.9	0.1	78.9	11.6	97.7	-2.6
Cn1c(=O)c2[nH]cnc2n(-c2ccccc2)c1=O	100.7	-27.4	-1.9	101.2	4.3	95.2	-2.9
S=c1nn[nH]n1C12CC3CC(CC(C3)C1)C2	103.3	-19.6	1.1	88.8	22.0	100.2	10.5
O=C(NCc1ccc2c(c1)OCO2)C1CCC(CNS(=O)(=O)c2ccc(Cl)cc2)CC1 (stereo unspecified)	91.0	-7.9	-4.0	102.5	-6.6	77.8	3.2
O=C(NC1CCN(C(=S)NCc2ccco2)CC1)c1ccc(F)cc1	x	8.8	0.1	x	7.6	x	-4.2

Three structures already listed, sorted by number of heavy atoms, ascending:
SMILES	Fibroblast inh	S1P2 antag	S1P2 agonist	H69AR growth 86K	PostGolgi ctrl	HUVEC inhibit	PTPN22 act
COC(=O)NNC(=O)c1ccc(C)cc1	x	5.9	-1.4	x	-8.6	x	1.7
COc1ccc(NC(C)=O)cc1NC(C)C(=O)Nc1ccccc1F (stereo unspecified)	99.2	2.1	-8.0	82.8	5.6	92.3	8.7
CCc1nc(NCC2CCCN2CC)c2nnn(Cc3ccccc3F)c2n1 (stereo unspecified)	91.8	-4.3	-10.6	71.0	-11.3	78.8	-2.7

Screening data as filed in PubChem BioAssay.

This is a subset. The share of hits here may be higher or lower than overall.
